rRNA inh HTS – reduced GFP signal of wild-type E. coli, primary screen, bacterial rRNA inhibitor project, GFP/RFP fluorescence, OD600, single point; AID 720706, 2013; GFP signal change (wild-type ribosome), % (concentration not given with the values); 350,000 tested, 1.6% active; E. coli WT GFP vs humanized-ribosome RFP mutants, 24 h; hits give low values; DMSO median 0, no signal -100;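 active means significant combined selectivity score with lowered wild-type GFP, culture density cut under 30%, mutant RFP and density less affected; inactive means any of these conditions unmet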; further: one replicate is shown; some compounds called inactive have numbers as strong as hits
Beta apoptosis – inhibitors of cytokine-induced beta cell apoptosis, primary screen, luminescence; protection from apoptosis, % (concentration not given with the values); 300,000 tested, 0.8% active; INS-1E cytokine-induced death, ATP luminescence, 48 h; percent of positive-control rescue, neutral wells zero;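 active means all replicates at 75% or more, or half of them and the mean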;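 further: 0% = cytokine-treated negative control wells and 100% = positive control rescue; higher means more ATP so stronger rescue from cytokine killing; wells of about 40 µL received 100 nL stock; the first replicate is given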
T cruzi inh – inhibitors of intracellular T. cruzi growth, primary screen, luminescence, NIH3T3 host cells; T. cruzi beta-gal in NIH3T3, 90 h; inhibition, % (no concentration beside the values); 300,000 tested, 1.4% active;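 active means mean inhibition across valid replicates above about 55%, limit read from the data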;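 further: signal also drops with host cell toxicity which is not excluded here; 0% = plate median of DMSO wells and 100% = zero luminescence signal; higher percent means less beta-gal luminescence so fewer parasites; stock transfer was 50 nL into about 50 µL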
Ecoli growth – E. coli growth inhibition, primary screen, OD600. Escherichia coli growth, 23 h; hits give low values. OD600 absorbance (concentration not given with the values). 330,000 tested, 0.21% active. AID 1053175, 2014;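 active means OD600 absorbance below the run mean of sample wells minus 3.6 SD, in any replicate, cut at about 0.56 in these data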;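 further: stock transfer was 300 nL into about 60 µL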
A1 inh – caspase 3/7 activation in MEF A1-2A-BIM cells, primary screen, A1 inhibitor project, cell-based, luminescence, HTS; Caspase-Glo 3/7 luminescence, 3 h; percent of clofoctol response, vehicle zero; caspase activation, % (test concentration not listed); 330,000 tested, 0.066% active; AID 2462, 2010;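 active means over half of replicate activation scores above 10%, or exactly half above 10 with the replicate mean above 10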;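 further: wells of about 30 µL received 50 nL stock; many hits fall short of the cut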
UCH37 DUB inh – inhibitors of human UCH37 deubiquitinase, primary screen, biochemical, Ub-AMC cleavage, fluorescence. inhibition, % (test concentration not listed). Ubiquitin carboxyl-terminal hydrolase isozyme L5 (Homo sapiens), Q9Y5K5. 330,000 tested, 0.33% active. AID 588478, 2011. purified proteasome/UCH37;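 active means mean of two replicates above 20%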;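 further: 0% = compound-free wells with enzyme and 100% = wells lacking proteasome; stock transfer was 100 nL into about 20 µL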
Target sequence (Q9Y5K5 whole entry, looked up): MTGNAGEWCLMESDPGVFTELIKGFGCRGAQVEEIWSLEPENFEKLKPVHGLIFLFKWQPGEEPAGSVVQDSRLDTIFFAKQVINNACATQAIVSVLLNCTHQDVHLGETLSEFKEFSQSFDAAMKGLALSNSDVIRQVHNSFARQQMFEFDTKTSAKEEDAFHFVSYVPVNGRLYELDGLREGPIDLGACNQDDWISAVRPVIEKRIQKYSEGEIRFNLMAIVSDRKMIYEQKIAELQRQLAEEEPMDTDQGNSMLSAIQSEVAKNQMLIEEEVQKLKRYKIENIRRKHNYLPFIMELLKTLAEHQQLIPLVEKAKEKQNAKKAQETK
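Material: Human UCH37 enzyme supplied as purified proteasome complex | Schedule: 30 min preincubation with enzyme, 25 min cleavage at room temperature | Detection: AMC fluorescence 355/460 nm | Measure: % inhibition of Ub-AMC cleavage fluorescence | Controls: Wells without proteasome as full block, compound-free enzyme plus substrate as uninhibited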
AF4-AF9 inh – inhibitors of AF4 peptide binding to AF9, primary screen, biochemical, AlphaScreen, biotin-AF4 peptide, FLAG-AF9, single point | Protein AF-9 (Homo sapiens), P42568 | inhibition, % at 10 µM | 350,000 tested, 0.47% active | AID 651704, 2012;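 active means every replicate reaching a set inhibition limit, whatever the replicate mean, cut at about 25% in these data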;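 further: 0% = plate neutral control median and 100% = total signal loss; the record names both 10 and 1 µM as test concentration; the first replicate is given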
Target sequence (P42568 whole entry, looked up): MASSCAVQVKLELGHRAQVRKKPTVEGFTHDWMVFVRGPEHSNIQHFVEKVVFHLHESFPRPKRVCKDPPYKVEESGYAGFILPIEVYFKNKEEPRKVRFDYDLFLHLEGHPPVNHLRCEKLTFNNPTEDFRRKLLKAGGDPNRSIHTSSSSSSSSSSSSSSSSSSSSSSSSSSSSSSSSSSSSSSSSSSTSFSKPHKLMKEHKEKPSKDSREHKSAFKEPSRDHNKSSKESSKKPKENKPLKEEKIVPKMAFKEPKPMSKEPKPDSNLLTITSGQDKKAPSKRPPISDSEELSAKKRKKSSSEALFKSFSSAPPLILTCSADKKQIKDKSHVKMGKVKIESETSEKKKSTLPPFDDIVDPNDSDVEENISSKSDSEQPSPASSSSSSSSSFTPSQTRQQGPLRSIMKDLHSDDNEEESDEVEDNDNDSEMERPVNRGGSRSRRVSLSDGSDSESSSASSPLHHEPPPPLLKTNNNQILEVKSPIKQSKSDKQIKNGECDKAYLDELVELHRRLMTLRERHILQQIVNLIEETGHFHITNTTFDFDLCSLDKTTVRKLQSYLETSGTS
FGF22 binding – binders of human FGF22 protein, primary screen, FGF22 synaptogenesis inhibitor project, biophysical, thermal shift, single point; calls only at 9.99 µM; recombinant FGF22 thermal shift, SYPRO orange fluorescence; percent of sucrose octasulfate shift, DMSO zero; Fibroblast growth factor 22 (Homo sapiens), Q9HCT0; AID 651658, 2012; 340,000 tested, 1.5% active;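 active means melting point raised past a set limit in the mean and every replicate; three in four hits are not shown here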
Target sequence (Q9HCT0 whole entry, looked up): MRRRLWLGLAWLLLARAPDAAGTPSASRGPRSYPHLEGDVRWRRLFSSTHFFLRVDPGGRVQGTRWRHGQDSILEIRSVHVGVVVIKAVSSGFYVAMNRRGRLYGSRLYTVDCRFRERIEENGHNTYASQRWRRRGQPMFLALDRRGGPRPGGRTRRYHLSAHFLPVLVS
rRNA inh HTS OD600 – recorded beside rRNA inh HTS, whose call it bears; OD600 change, %; measured here: OD600 growth;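 optical density of the mix in the first replicate; 0 = DMSO median and -100 = no signal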
rRNA inh HTS RFP – further read-out of rRNA inh HTS, marked with its call; RFP signal change, %; measured here: RFP humanized mutant strains;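 first replicate; 0 = DMSO median and -100 = no signal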
* hit, by the source's call; i = inactive; · = not tested or not shown. A portion of the library; the hit share may differ from the screen's.

SMILES	rRNA inh HTS	rRNA inh HTS OD600	rRNA inh HTS RFP	Beta apoptosis	T cruzi inh	Ecoli growth	A1 inh	UCH37 DUB inh	AF4-AF9 inh	FGF22 binding
CCC1Nc2ncnc(N3CCCCC3)c2N(Cc2ccc(Br)cc2)C1=O (centres undefined)	-26.9	-40.4	8.7	-4.7	28.0	0.708	-0.6	1.2	·	i
CCOC(=O)c1c(C)c(C(=O)NCCN2CCOCC2)c(C)n1C	9.6	4.5	-5.2	-19.5	2.2	0.58	0.0	0.2	4.8	i
CC1CCCN(S(=O)(=O)c2ccc(S(=O)(=O)NC(C)c3cccs3)cc2)C1 (centres undefined)	·	·	·	-4.5	·	0.621	-0.2	2.4	·	·
COc1ccccc1C(=O)N/C(=C\c1cn(C)c2ccccc12)C(=O)NCCCN1CCOCC1	6.4	4.9	-0.6	-1.7	-5.2	0.715	0.0	13.7	3.4	i
COCCNS(=O)(=O)c1ccc(F)c(OC)c1	·	·	·	-6.4	-16.7	0.726	0.1	4.7	·	·
COc1ccc(C(=O)NC(=S)Nc2ccc3oc(=O)ccc3c2)cc1OC	-4.8	-4.8	3.5	3.5	-9.1	0.703	0.8	1.0	0.0	i
Cc1cc(C)n(C(CC(=O)N2CCc3ccccc3C2)C(=O)O)n1 (centres undefined)	·	·	·	-1.9	-3.7	0.641	2.9	6.4	·	·
O=C(CC1SC(=O)N(c2ccccc2)C1=O)Nc1ccc(Br)cc1 (centres undefined)	-16.2	7.1	13.0	-6.2	2.1	0.668	-0.3	3.8	-1.3	i
COC(=O)c1ccc(COc2ncnc3c(Cl)cc(Cl)cc23)o1	·	·	·	-2.8	-0.4	0.73	0.7	4.4	·	·
Cc1cccc(NC(=O)CNC(=O)Cc2ccc(S(=O)(=O)N3CCOCC3)s2)c1C	-2.1	7.6	-1.7	-2.3	·	0.685	-0.9	2.1	0.2	i
O=C(NCCc1ccccn1)c1nc(Cn2cc(Br)cn2)no1	8.5	6.0	0.7	6.0	-1.9	0.669	0.1	2.0	-3.2	i
COC(=O)CC(c1ccc(C(C)C)cc1)n1cccc1 (centres undefined)	-5.0	-8.2	-1.1	-6.1	-16.1	0.703	0.6	4.5	-1.2	·
Cc1cccc(NC(=O)c2cn(-c3ccccc3)nc2-c2ccccc2)c1	·	·	·	0.4	30.4	0.656	-0.2	6.0	·	·
CCN(CC)CCOC(=O)c1ccc(NC(=O)CCNC(=O)Cn2ccc3ccccc3c2=O)cc1	8.0	13.5	-1.5	-1.0	-11.9	0.666	0.9	5.0	·	·
CN(Cc1ccccc1)C(=O)C1CCCN(Cc2ccc(Cl)cc2)C1 (centres undefined)	·	·	·	0.5	37.2	0.713	-0.2	5.6	·	·
O=C(Cn1nc([N+](=O)[O-])nc1Br)NC1CCCCC1	-9.0	10.1	-5.2	-1.1	37.0	0.656	-0.3	3.1	-15.4	i
CCOC(=O)CN1C(=O)N(CC)C(C)=C(C(=O)OC)[C@@H]1c1ccccc1	10.5	11.0	-1.5	-4.1	-8.7	·	-0.4	-1.2	-7.4	i
CCCCS(=O)(=O)NC1=NCN(Cc2ccco2)CN1	·	·	·	0.3	-3.2	0.685	2.4	-1.1	·	·
COC(=O)C1(C(=O)OC)NOC2C(=O)N(c3ccc(Cl)cc3Cl)C(=O)C21 (centres undefined)	·	·	·	-3.3	-8.7	0.639	1.5	1.7	·	·
Cc1[nH]nc2c1C(=O)CC(C)(C)C2	·	·	·	-7.3	-3.0	0.676	-0.4	1.1	·	·
O=C(CN1C(=O)COc2ccccc2C1=O)c1ccc2c(c1)OCCO2	-3.0	10.1	-1.7	-7.7	-16.7	0.712	-0.3	-1.5	-1.8	i
Cc1ccc2ncc(NC(=O)c3ccc(F)cc3)c(=O)n2c1	·	·	·	-1.2	-9.3	0.731	1.1	-4.6	·	·
CCc1ccc(N/C(SCc2ccccc2C)=C(/C#N)C(=O)NCc2ccco2)cc1	·	·	·	3.3	49.6	0.674	0.0	7.1	·	·
C[n+]1ccc(/C=C/c2cccs2)cc1	20.9	3.3	-0.5	-1.4	-10.5	0.695	0.0	2.6	-6.8	i
COc1cccc(C(=O)CC(C(=O)O)c2ccc(Cl)cc2)c1 (centres undefined)	4.7	0.6	1.7	-1.5	-7.2	0.684	0.3	0.8	-1.6	i

Pulled one by one from the entries so far (3):
SMILES	rRNA inh HTS	rRNA inh HTS OD600	rRNA inh HTS RFP	Beta apoptosis	T cruzi inh	Ecoli growth	A1 inh	UCH37 DUB inh	AF4-AF9 inh	FGF22 binding
COc1ccc(C(=O)NC(=S)Nc2ccc3oc(=O)ccc3c2)cc1OC	-4.8	-4.8	3.5	3.5	-9.1	0.703	0.8	1.0	0.0	i
CCc1ccc(N/C(SCc2ccccc2C)=C(/C#N)C(=O)NCc2ccco2)cc1	·	·	·	3.3	49.6	0.674	0.0	7.1	·	·
COc1cccc(C(=O)CC(C(=O)O)c2ccc(Cl)cc2)c1 (centres undefined)	4.7	0.6	1.7	-1.5	-7.2	0.684	0.3	0.8	-1.6	i

Results in A1 inh (4 entries from above):
SMILES,A1 inh
O=C(Cn1nc([N+](=O)[O-])nc1Br)NC1CCCCC1,-0.3
CCN(CC)CCOC(=O)c1ccc(NC(=O)CCNC(=O)Cn2ccc3ccccc3c2=O)cc1,0.9
CCC1Nc2ncnc(N3CCCCC3)c2N(Cc2ccc(Br)cc2)C1=O (centres undefined),-0.6
O=C(CC1SC(=O)N(c2ccccc2)C1=O)Nc1ccc(Br)cc1 (centres undefined),-0.3

Other structures.
SMILES	rRNA inh HTS	rRNA inh HTS OD600	rRNA inh HTS RFP	Beta apoptosis	T cruzi inh	Ecoli growth	A1 inh	UCH37 DUB inh	AF4-AF9 inh	FGF22 binding
O=c1[nH]c2c(c(=O)[nH]1)CCCCCC2	4.3	5.8	-3.9	·	·	0.713	·	-0.9	-3.8	i
CCC(C(=O)OCC(=O)Nc1cc(OC)ccc1OC)c1ccccc1 (centres undefined)	7.9	-7.4	1.7	3.0	-7.5	0.691	0.3	0.4	-2.7	i
Cc1c(C#N)c(O)n(CCO)c(=O)c1N=Nc1ccc(S(N)(=O)=O)cc1	8.4	16.2	2.1	5.9	26.6	0.694	0.7	20.6*	-0.9	i
COc1ccc(C(=O)C2CC2c2ccc3c(c2)OCO3)cc1 (centres undefined)	-28.4	-40.1	-4.2	-9.2	9.5	0.731	-0.1	0.4	-0.2	·
CC1Cc2ccccc2N1S(=O)(=O)c1cccc(C(=O)N2CCN(c3ncccn3)CC2)c1 (centres undefined)	-36.5	-59.9	-3.4	0.9	6.2	0.722	0.3	0.8	0.8	i
CCOc1ccc(Nc2nc(N)nc(CCl)n2)cc1	·	·	·	40.6	29.7	0.634	0.0	4.3	2.7	i
CC(C)Oc1ccc(C(CC(=O)O)NC(=O)Cc2ccc(Cl)cc2)cc1 (centres undefined)	9.7	18.1	-5.2	-4.1	-6.5	0.713	1.2	1.8	1.7	i
CCOc1ccc(CCNC(=O)C(C)N2C(=O)CC(C)(C)Sc3ccccc32)cc1 (centres undefined)	-12.4	-16.6	-4.7	0.4	9.2	0.624	0.8	0.3	1.1	i
COc1ccccc1S(=O)(=O)Cc1ccc(C(=O)NC2CC2)o1	16.8	16.4	1.4	3.6	-41.4	0.646	0.2	0.9	-0.6	i
Cc1cccc(Cn2c(=O)n(Cc3ccco3)c(=O)c3ccccc32)c1	·	·	·	10.9	·	0.747	0.8	2.6	·	·
O=C(CSc1nc2ccccc2c(=O)n1-c1ccc(OC(F)F)cc1)NC1CC1	-1.1	-4.2	-1.2	1.1	·	0.655	-0.1	-1.0	-1.6	i
O=C(/C=C/c1cccc([N+](=O)[O-])c1)c1ccc([N+](=O)[O-])o1	1.0	5.0	26.6	133.5*	56.5*	·	1.9	1.5	1.5	i
COc1ccc(OC(C)C(=O)N2CCN(c3ccccn3)CC2)cc1 (centres undefined)	·	·	·	-4.8	-6.9	0.717	0.6	2.9	·	·
O=C(c1ccc2ncsc2c1)N1CCN(c2nc3ccccc3s2)CC1	4.6	2.3	0.5	·	-2.9	0.748	1.3	5.8	0.0	i
O=C(Cc1ccc2c(c1)CCCC2)Nc1ccccc1Cl	-3.8	-3.5	-7.4	9.7	6.1	0.644	0.3	-2.5	0.4	i
Cc1nc2ccc(NC(=O)N3CCCCC3)cc2nc1C	·	·	·	0.3	-1.2	0.754	0.3	-130.5	·	·
COC(=O)Nc1ccccc1C(=O)N1CCC(O)(c2ccc(Cl)cc2)CC1	·	·	·	-3.2	-3.4	0.68	0.4	-0.8	·	·
CC1(c2ccccc2)NC(=O)N(CC(=O)Nc2ccc(N3CCOCC3)cc2N2CCOCC2)C1=O (centres undefined)	5.5	19.1	0.3	1.1	-5.6	0.673	0.5	0.7	-5.3	i
COc1cc(-c2nc3n(n2)C(c2ccncc2)C(C(N)=O)=C(C)N3)cc(OC)c1OC (centres undefined)	·	·	·	-0.9	-0.3	0.723	-0.1	2.6	·	·
Cc1ccc(S(=O)(=O)N2CCN(C(=O)CNC(=O)c3sc4ccccc4c3Cl)CC2)cc1	-0.9	-1.5	0.0	-2.0	3.2	0.618	-0.7	-10.6	-9.5	i
O=C(Nc1ccccc1C(F)(F)F)C1CC(=O)N(c2ccccc2F)C1 (centres undefined)	·	·	·	-4.3	2.3	0.721	1.9	1.4	·	·
Cc1ccc(S(=O)(=O)N(c2nc(NC(C)C)nc(NC(C)C)n2)n2cnnc2)cc1	-6.2	-8.2	12.6	1.8	-2.5	0.64	0.1	6.0	5.1	i
COc1ccc(/C=C(/NC(=O)/C=C/c2ccccc2)C(=O)O)cc1	-2.9	-1.3	1.4	-8.5	5.7	0.692	0.3	3.1	-1.4	i
CC(C)NC(=O)c1cccc2c1-c1ccccc1C2=O	13.2	9.7	-0.3	-4.1	-3.7	0.651	1.2	0.2	2.8	i
COc1ccc2c(c1)-c1c(ssc1=S)C(C)(C)N2	·	·	·	-14.4	10.0	0.673	-7.3	6.4	·	·
NNC(=O)c1csc(Cc2c(Cl)sc3ccc(Cl)cc23)n1	-30.8*	-1.7*	4.5*	0.1	-6.4	0.661	0.6	5.5	1.6	i
c1ccc(-c2cn3cccnc3n2)cc1	6.1	-1.2	-0.3	-1.6	-15.9	0.657	0.2	i	-4.2	i
Cc1nc2ccc(Nc3nc4cc(S(=O)(=O)N5CCOCC5)ccc4o3)cc2s1	·	·	·	-6.5	2.8	0.657	-1.2	5.0	·	·

Compound activity (PubChem BioAssay)
